Beta apoptosis: beta cell apoptosis inhibition | protection from apoptosis, % (no concentration beside the values) | actives 0.8% (n = 300,000) | AID 435005 | INS-1E cytokine-induced death, ATP luminescence, 48 h; percent of positive-control rescue, neutral wells zero;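 active means all replicates at 75% or more, or half of them and the mean; inconclusive means half reach 75% but not the mean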;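 further: 0% = cytokine-treated negative control wells and 100% = positive control rescue; higher means more ATP so stronger rescue from cytokine killing; wells of about 40 µL received 100 nL stock; the first replicate is given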
T cruzi repl: blocks replication of Trypanosoma cruzi | T. cruzi beta-gal in NIH3T3, luminescence, 90 h | inhibition, % (concentration not given with the values) | actives 1.4% (n = 300,000);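 active means mean inhibition across valid replicates above about 55%, limit read from the data; inconclusive means mean below that limit but half or more replicates reach it; inactive means mean below it, under half of replicates reach it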;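 further: signal also drops with host cell toxicity which is not excluded here; 0% = plate median of DMSO wells and 100% = zero luminescence signal; higher percent means less beta-gal luminescence so fewer parasites; stock transfer was 50 nL into about 50 µL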
FGF22 binding: FGF22 (human) thermal shift binding; actives 1.5% (n = 340,000); Q9HCT0; recombinant FGF22 thermal shift, SYPRO orange fluorescence; percent of sucrose octasulfate shift, DMSO zero; AID 651658; calls only at 9.99 µM;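 active means melting point raised past a set limit in the mean and every replicate; inconclusive means no clear call; three in four hits are not shown here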
Target sequence (Q9HCT0 whole entry, looked up): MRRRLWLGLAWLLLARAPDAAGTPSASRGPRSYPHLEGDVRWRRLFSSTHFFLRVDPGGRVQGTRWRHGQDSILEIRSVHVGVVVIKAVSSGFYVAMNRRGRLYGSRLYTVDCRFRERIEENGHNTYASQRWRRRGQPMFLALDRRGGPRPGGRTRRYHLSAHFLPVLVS
Calb FLC: affects C. albicans growth with fluconazole; C. albicans CaCi-2 (fluconazole-resistant clinical isolate) + fluconazole, Alamar Blue growth, 48 h; growth inhibition, % (no concentration beside the values); actives 0.57% (n = 300,000); AID 1979;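 active means most replicates above 75%; inconclusive means exactly half above 75%; inactive means most below 75%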;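 further: all wells also contain fluconazole at 8 µg/ml as a sub-toxic cotreatment; 0% = median of DMSO wells and 100% = median of geldanamycin control wells; wells of about 8 µL received 7.5 nL stock; the first replicate is given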
RanGTP-Imp inh: inhibitors of RanGTP-importin-beta interaction, primary screen, biochemical, FRET, CFP-Ran, YFP-importin-beta, homogeneous; cell-free CFP-Ran/YFP-importin-beta FRET ratio; inhibition, % (no concentration beside the values); actives 1.1% (n = 300,000); AID 2216;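 active means most replicates above 15%; inconclusive means exactly half above 15%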;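 further: 0% = DMSO wells and 100% = Ran loaded with GDP instead of GTP; wells of about 40 µL received 100 nL stock; the first replicate is given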
rRNA inh HTS: inhibitors of bacterial rRNA selective over humanized ribosomes; E. coli WT GFP vs humanized-ribosome RFP mutants, fluorescence, 24 h; hits give low values; DMSO median 0, no signal -100; GFP signal change (wild-type ribosome), % (concentration not given with the values); actives 1.6% (n = 350,000); AID 720706;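 active means significant combined selectivity score with lowered wild-type GFP, culture density cut under 30%, mutant RFP and density less affected; inactive means any of these conditions unmet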; further: one replicate is shown; some compounds called inactive have numbers as strong as hits
ALR inh: human ALR oxidase inhibition via reduced H2O2; purified ALR, DTT oxidation, H2O2 HRP-luminol luminescence; inhibition, % (concentration not given with the values); P55789; actives 3.8% (n = 290,000);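 active means mean and each replicate at 75% or more; inconclusive means only one of the two met; inactive means neither met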;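 further: stock transfer was 7.5 nL into about 7.5 µL; 0% = neutral wells and 100% = wells with inactivated enzyme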
Target sequence (P55789 whole entry, looked up): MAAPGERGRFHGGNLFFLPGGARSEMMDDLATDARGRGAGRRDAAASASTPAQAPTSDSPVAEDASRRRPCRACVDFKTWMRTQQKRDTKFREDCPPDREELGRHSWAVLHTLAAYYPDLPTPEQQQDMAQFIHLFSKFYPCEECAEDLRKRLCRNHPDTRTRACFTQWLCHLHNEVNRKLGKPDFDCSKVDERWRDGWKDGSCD
MLL AF4-AF9 inh: MLL-AF4/AF9 protein interaction inhibition | P42568 | AlphaScreen, biotin-AF4 peptide binding to FLAG-AF9 | inhibition, % at 10 µM | actives 0.47% (n = 350,000);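 active means every replicate reaching a set inhibition limit, whatever the replicate mean, cut at about 25% in these data; inconclusive means mean inhibition reaches that limit but some replicates miss it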;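 further: 0% = plate neutral control median and 100% = total signal loss; the record names both 10 and 1 µM as test concentration; the first replicate is given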
Target sequence (P42568 whole entry, looked up): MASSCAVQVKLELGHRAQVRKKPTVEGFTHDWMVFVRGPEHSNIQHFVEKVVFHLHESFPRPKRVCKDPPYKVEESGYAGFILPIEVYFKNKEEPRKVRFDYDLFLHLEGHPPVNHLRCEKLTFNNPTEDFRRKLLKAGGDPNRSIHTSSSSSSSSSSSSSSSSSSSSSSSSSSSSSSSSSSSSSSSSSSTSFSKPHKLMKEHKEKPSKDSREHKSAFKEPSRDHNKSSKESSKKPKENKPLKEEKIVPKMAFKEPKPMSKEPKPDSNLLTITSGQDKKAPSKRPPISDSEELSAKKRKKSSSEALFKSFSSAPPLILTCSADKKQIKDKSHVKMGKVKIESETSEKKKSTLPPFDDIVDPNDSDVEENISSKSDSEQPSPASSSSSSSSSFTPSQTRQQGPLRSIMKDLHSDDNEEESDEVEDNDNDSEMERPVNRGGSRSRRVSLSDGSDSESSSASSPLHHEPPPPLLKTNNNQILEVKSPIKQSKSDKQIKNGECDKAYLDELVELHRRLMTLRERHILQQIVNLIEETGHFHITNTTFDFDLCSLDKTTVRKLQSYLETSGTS
rRNA inh HTS OD600: recorded beside rRNA inh HTS, whose call it bears; OD600 change, %; measured here: OD600 growth;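 optical density of the mix in the first replicate; 0 = DMSO median and -100 = no signal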
rRNA inh HTS RFP: also measured in rRNA inh HTS; calls as there; RFP signal change, %; measured here: RFP humanized mutant strains;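 first replicate; 0 = DMSO median and -100 = no signal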
* marks the source's active call; other numbers are inactive results; i = inactive; ? = inconclusive; nt = not tested or not shown; + = active, no number. A portion of the library; rates above refer to the full screens.

SMILES	Beta apoptosis	T cruzi repl	FGF22 binding	Calb FLC	RanGTP-Imp inh	rRNA inh HTS	rRNA inh HTS OD600	rRNA inh HTS RFP	ALR inh	MLL AF4-AF9 inh
CCc1ccc(NC(=O)CS(=O)CC(=O)NCC2OCCc3ccccc32)cc1 (centres undefined)	-6	-16	nt	-9	0.7	nt	nt	nt	-3	nt
COc1ccc(-c2csc3nc[nH]c(=O)c23)cc1OC	-3	-2	i	3	1.7	5	0	3.1	nt	0.9
CCn1c(=O)c(CCC(=O)N2CCN(c3ccccn3)CC2)c(C)c2c(C)nn(-c3cccc(C)c3)c21	2	58*	i	12	-1.8	4	14	-2.6	8	2.5
Cc1cccc2cc(C(c3nnnn3Cc3ccccc3)N3CCN(c4ccccc4)CC3)c(=O)[nH]c12 (centres undefined)	-1	7	nt	-3	6.0	nt	nt	nt	-35	nt
COCCNC(=S)N1CCc2cc(OC)c(OC)cc2C1c1cccs1 (centres undefined)	-3	5	i	6	6.0	-4	-5	-13	64	-0.7
Cc1nn(C)cc1NC(=O)c1nn(C)cc1[N+](=O)[O-]	1	3	i	-21	1.4	8	11	-0.3	-5	-0.4
COc1ccc(N2CCN(C(=O)c3ccc(CNS(=O)(=O)c4cc(C)ccc4C)cc3)CC2)cc1	1	17	i	-43	0.5	-23	-17	14	3	5.9
CCc1ccccc1N1CC(C(=O)N2Cc3ccccc3CC2C(N)=O)CC1=O (centres undefined)	-5	nt	i	nt	nt	11	34	-0.6	11	2.0
O=C(c1ccc2[nH]c(=O)c(=O)[nH]c2c1)N1CCN(c2ccccc2)CC1	-6	1	i	nt	-0.5	10	10	1.0	34	-10.0
C=CCn1c(=O)c(C(=O)Nc2cc(C)ccn2)c(O)c2ccccc21	nt	14	i	-11	5.0	11	11	5.0	20	-3.7
Cc1ccc(C)c(NC(=S)NNC(=O)c2csc(C)c2C)c1	6	6	nt	-5	-5.0	nt	nt	nt	nt	nt
CCc1cccc(NC(=O)c2ccc(CNc3c(N4CCCC4)c(=O)c3=O)cc2)c1	8	-24	i	8	3.0	6	3	-3.7	nt	-3.3
Cc1ccc(-n2nc3c(n2)/C(=N/O)CC/C3=N\O)cc1	24	4	nt	11	-1.2	nt	nt	nt	17	nt
CCn1c2ccccc2c2cc(C3N=C(N)Nc4nc5ccccc5n43)ccc21 (centres undefined)	4	-6	nt	11	1.7	1	2	5.1	-5	nt
CCOc1cc(/C=C2\SC(=N)N(c3nonc3N)C2=O)ccc1OCCN1CCOCC1	nt	6	+	44	2.4	7	8	-4.0	24	-3.9
COc1ccc(/C=C(\NC(=O)c2ccccc2)C(=O)N2CCCCC2)cc1OC	-1	-8	i	10	2.1	3	9	2.1	0	2.0
CC(C)(C)[C@@H]1COC(=O)[C@H](Cc2ccc(F)cc2)C/C=C\C[C@@H](CC(=O)N(CCO)Cc2ccccc2)C(=O)N1	-7	nt	i	nt	nt	6	-5	14	-5	-1.2
O=C(N/N=C/c1ccccc1)c1[nH]ncc1Br	nt	-2	nt	3	-7.5	18	9	1.9	-11	2.0
O=C(CCCc1c[nH]c2ccccc12)NCc1cccs1	-1	-5	nt	-7	3.0	nt	nt	nt	90*	1.8
Cc1occc1C(=O)Nc1cccnc1	-9	-7	nt	-1	1.0	nt	nt	nt	-13	nt
COCCCN(CCNC(=O)c1ccc(NC2=NC3CS(=O)(=O)CC3S2)cc1)Cc1ccco1 (centres undefined)	-5	-6	i	3	1.2	6	-3	3.7	-4	-3.6
O=C(COc1ccc([N+](=O)[O-])cc1)N(C1CCCCC1)C1CCS(=O)(=O)C1 (centres undefined)	-8	4	nt	-1	4.8	3	3	-1.4	-3	-0.1
O=C(NNc1cccc(Cl)c1)c1cccnc1Cl	5	11	i	33*	4.0	16	13	3.5	98*	-0.7
CC1CCN(C(=O)CCc2ccc(S(=O)(=O)NC(C)(C)C)cc2)CC1	-8	-6	nt	-12	-2.8	nt	nt	nt	-6	nt
Cc1cc(NS(=O)(=O)c2ccc(NC(=O)c3ccc(Cl)cc3[N+](=O)[O-])cc2)no1	-3	-5	i	nt	nt	-7	-8	-1.5	-9	-1.1
CCOC(=O)c1cccc(P(C)(C)=O)c1	0	-25	i	-12	2.8	12	12	-3.3	-6	-2.6
COc1ccc(C)cc1NC(=O)c1cccc(-c2ccc(OC(C)=O)cc2)c1	-3	16	i	0	2.9	-12	-10	-1.4	nt	5.5
COc1cc(-c2nc3cnccc3n2C)cc(OC)c1OC	2	-5	nt	-2	1.4	nt	nt	nt	-6	nt
O=C1CC(C(=O)O)(c2ccccc2)c2cccc(F)c21 (centres undefined)	-4	-6	i	4	1.6	11	7	-0.5	-5	-5.4
O=C(NCc1nc(-c2ccc(C(F)(F)F)cc2)no1)c1cccs1	nt	-1	i	1	0.6	-4	8	-1.2	4	-5.3
CCCCOC(=O)C1CCC[C@@H](C)N1 (some centres undefined)	nt	-18	nt	-6	2.2	nt	nt	nt	2	nt
CCOC(=O)C1C(=O)C=C(C)C(C(=O)OCC)C1c1cccc([N+](=O)[O-])c1 (centres undefined)	2	8	i	6	-3.4	3	-1	0.8	-4	-7.5
C/C(=N\NC(=O)OC(C)(C)C)c1cccc([N+](=O)[O-])c1	1	-13	nt	31	-1.4	nt	nt	nt	5	nt
COc1cc(OC)cc(-c2nc3ccccc3c(=O)n2OC(=O)c2ccc(C)c(C)c2)c1	10	-11	i	19	1.5	-22*	-11*	-5.2*	2	0.6
CC(=O)Oc1ccccc1C(=O)Oc1ccc(/C=N/n2cnnc2)cc1	-7	-9	nt	-4	0.4	nt	nt	nt	17	nt
Cc1ccccc1Cn1c2ccccc2c2cnn(CC(=O)NCCCN3CCN(C)CC3)c(=O)c21	2	23	i	-7	1.3	6	3	4.0	5	15
O=C(Nc1ccccc1)c1cccc(N2C(=O)C3C4C=CC(C5CC45)C3C2=O)c1 (centres undefined)	1	4	i	14	-1.1	-13	-19	0.1	-8	-2.9
Cc1onc(C(=O)Nc2cccc(C(F)(F)F)c2)c1[N+](=O)[O-]	nt	-12	i	4	1.4	2	5	2.2	17	4.1
CCOc1ccc(NC(=O)CNC(=O)c2ccc([N+](=O)[O-])cc2)cc1	1	3	i	-11	1.6	4	1	1.5	-15	-2.2
C=CCNC(=O)c1ccc(NC(=O)C2=CSCCO2)cc1	nt	-6	nt	3	3.9	nt	nt	nt	-17	nt
Cc1ccccc1NC(c1cccc(Cl)c1)c1nnnn1C1CCCCC1 (centres undefined)	-3	24	i	8	-1.1	9	15	7.5	-3	-8.3
Cc1ccc(S(=O)(=O)N(C)Cc2nc(-c3ccccn3)no2)cc1	3	-3	nt	-5	1.5	nt	nt	nt	nt	nt
CCC(=O)N(C)/C=C1\Sc2ccccc2C1=O	-2	-6	nt	-2	20*	nt	nt	nt	-4	nt
CC(=O)NC1(C(F)(F)F)NC(=O)N(CCc2ccccc2)C1=O (centres undefined)	1	-8	i	2	-1.8	19	2	1.2	-12	1.6
O=C(CCCN1C(=O)/C(=C\c2ccccc2)SC1=S)Nc1ccc(C(=O)O)cc1	-4	10	i	-2	1.2	-1	0	4.2	2	-2.0
COc1ccc(COCC(O)CN2CC(C)OC(C)C2)cc1OC (centres undefined)	-6	-8	i	1	-3.6	14	9	2.6	-9	-58
Cn1c(=O)c(/C=C/c2ccc(F)cc2)nc2ccccc21	nt	39	i	11	53*	21	9	4.0	nt	3.8
NC(=O)CC(NC(=O)Cc1ccc(Br)cc1)c1ccc(NC2CCC2)c([N+](=O)[O-])c1 (centres undefined)	-12	2	i	-5	3.4	1	-4	-2.8	-1	-0.7
CC(=O)c1ccc(NC(=O)[C@@]2(CC(=O)O)CC(/C=C/c3ccccc3)=NO2)cc1	-1	-10	i	0	0.1	6	8	-0.6	-7	-6.3
CCOC(=O)c1[nH]cnc1N=Nc1c(O)ccc2ccccc12	97*	17	nt	3	-41	nt	nt	nt	-73	nt

(more compounds)
SMILES	Beta apoptosis	T cruzi repl	FGF22 binding	Calb FLC	RanGTP-Imp inh	rRNA inh HTS	rRNA inh HTS OD600	rRNA inh HTS RFP	ALR inh	MLL AF4-AF9 inh
C=CCn1c(SCc2nc3ccccc3[nH]2)nnc1-c1ccncc1	0	-6	nt	-21	3.1	nt	nt	nt	nt	nt
CN(C)c1ccc(S(=O)(=O)NCC(=O)NCCC2=CCCCC2)cc1[N+](=O)[O-]	-3	nt	i	nt	nt	-12	-33	-2.1	-2	3.8
CC(C)=C(NC(=O)c1ccccc1)C(=O)NCCCC(=O)O	nt	6	i	5	-0.1	-8	-4	2.3	-8	5.8
COc1ccc(CCn2c(=N)c(S(=O)(=O)c3ccc(C)cc3)cc3c(=O)n4ccccc4nc32)cc1	-1	29	i	5	2.9	3	3	0.4	-4	-0.8
Cc1cccn2c(CN(C)CC3CCCCO3)c(C(=O)N3CCCCC3)nc12 (centres undefined)	1	-10	i	-15	2.9	-6	-5	3.2	3	0.5
COc1ccc(C(=O)N/N=C/c2cccc3cccnc23)cc1	41	-2	nt	?	-2.0	nt	nt	nt	0	nt
C[C@@H](OC(=O)N1CCCCC1)[C@H]1O[C@]2(C)CCCC[C@H]1O2	-3	nt	i	nt	nt	12	8	12	-2	-4.7
CCN1CCN(c2ncc(C(=O)Nc3cc(Cl)ccc3OC)c3ccccc23)CC1	-1	17	nt	-5	1.2	nt	nt	nt	-4	nt
COc1ccc(CC(=O)Nc2ccccc2C(=O)N2CCOCC2)cc1	-5	-21	nt	-17	-1.3	nt	nt	nt	-2	nt
CCOC(=O)C1CCN(C2=NC(=O)/C(=C/c3ccc(OC)c(OC)c3)S2)CC1	-5	2	i	-5	-4.8	-30*	-15*	-3.9*	20	2.0
Cc1ccc(S(=O)(=O)N2CCC(CN3C(=O)c4cccc5cccc(c45)C3=O)CC2)cc1	3	32	nt	-23	5.0	nt	nt	nt	-8	nt
O=C(COC(=O)c1ccc(S(=O)(=O)NCc2ccco2)cc1)Nc1ccc(Cl)cn1	-15	-16	i	0	0.7	19	20	-0.6	3	-1.5
CCOC(=O)Cc1csc(NC(=O)c2cnc3scc(C)n3c2=O)n1	-3	-14	nt	2	-5.1	nt	nt	nt	-9	nt
Cc1ccc(-c2[nH]c3ccccc3c2SCCN)cc1	4	17	i	-4	-6.0	8	-6	-3.0	-8	0.4
CCCCn1c(SCC(=O)N2c3ccccc3Sc3ccccc32)nc2c1c(=O)n(C)c(=O)n2C	17	31	nt	-6	-3.5	nt	nt	nt	-13	nt
O=S(=O)([N-]c1nc2ccccc2nc1-n1cc[n+](Cc2ccccc2)c1)c1ccc(Cl)cc1	3	16	i	12	7.3	11	10	4.3	-5	-1.2
C=CCn1c(C)cc(C(=O)CSc2nnc(-c3cccc(S(=O)(=O)N(CC)CC)c3)o2)c1C	7	29	nt	0	0.6	nt	nt	nt	11	nt
COc1cc([C@@H]2CC=C(C(=O)O)[C@H](c3ccc(Cl)cc3)N2S(=O)(=O)c2ccc(C)cc2)cc(OC)c1OC	-10	nt	i	nt	nt	-5	-9	-1.9	5	-3.9
O=C1C2C(C(=O)N1CCc1ccccc1)C1C=CC2C12CC2 (centres undefined)	-5	3	+	3	1.9	1	-7	-2.9	-2	-5.3

Bioassay records: PubChem, Broad Institute
